Rango complex inh: inhibitors of Rango-importin beta complex formation | 340,000 compounds, 0.031% hits | AID 540263 | Rango CFP/YFP FRET sensor + importin beta, 45 min | Potency, µM (top dose mostly 92.2 µM), inactives show at the top dose inhibition of complex formation; active = rising FRET ratio curve, often small or poorly fitted; inconclusive = mostly compound fluorescence or quenching in the first reads; inactive = flat curves in all reads;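 note: potency is the fitted concentration of half-maximal effect; 0% = DMSO wells and 100% = buffer wells lacking importin beta; nearly all actives have a fitted effect of over 15% in size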
Target sequence (Q14974 whole entry, looked up): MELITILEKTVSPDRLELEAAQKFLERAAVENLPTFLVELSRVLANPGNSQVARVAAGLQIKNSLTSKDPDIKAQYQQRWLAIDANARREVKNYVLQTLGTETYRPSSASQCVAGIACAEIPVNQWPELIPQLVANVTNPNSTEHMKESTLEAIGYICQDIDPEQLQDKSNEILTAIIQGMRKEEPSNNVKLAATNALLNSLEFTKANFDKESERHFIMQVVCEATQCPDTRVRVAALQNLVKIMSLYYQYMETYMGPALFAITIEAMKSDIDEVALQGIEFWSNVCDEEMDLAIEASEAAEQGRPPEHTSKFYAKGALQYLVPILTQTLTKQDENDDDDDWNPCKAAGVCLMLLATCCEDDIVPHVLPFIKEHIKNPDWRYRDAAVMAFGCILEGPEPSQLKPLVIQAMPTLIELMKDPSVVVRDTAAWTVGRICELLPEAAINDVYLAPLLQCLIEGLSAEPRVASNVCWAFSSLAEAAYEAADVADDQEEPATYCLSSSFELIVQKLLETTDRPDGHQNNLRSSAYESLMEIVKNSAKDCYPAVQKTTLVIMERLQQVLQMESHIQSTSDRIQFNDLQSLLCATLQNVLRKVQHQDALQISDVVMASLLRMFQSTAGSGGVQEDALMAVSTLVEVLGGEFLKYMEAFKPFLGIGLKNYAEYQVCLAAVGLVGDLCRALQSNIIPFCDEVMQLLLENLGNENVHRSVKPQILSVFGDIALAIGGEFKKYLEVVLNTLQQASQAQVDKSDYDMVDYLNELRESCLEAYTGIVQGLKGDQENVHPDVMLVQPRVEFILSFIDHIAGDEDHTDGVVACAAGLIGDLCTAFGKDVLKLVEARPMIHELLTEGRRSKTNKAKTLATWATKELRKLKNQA
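Inhibition scored from the CFP 486 nm/YFP 530 nm FRET ratio 45 min after adding 0.125 microM importin beta to 50 nM Rango biosensor preincubated 5 min with compound (room temperature, PBS with DTT, Tween-20, BSA). No-importin wells as positive control.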
Rango release inh: prevents RanGTP from dissociating the Rango-importin beta complex. Potency, µM (titrated, usually from 46.1 µM), for inactives: at the top dose activity change, negative = inhibition. Biochemical FRET Rango-importin beta, RanGTP-induced dissociation. 340,000 compounds, 0.071% hits. O95149+P62826; active means falling FRET ratio curve, often poorly fitted, with flat reads before Ran was added; inconclusive means other falling curves, or compound fluorescence or quenching; inactive means flat or rising ratio curve;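 note: potency is the fitted concentration of half-maximal effect; % of control where 0% means no effect; nearly all actives have a fitted effect of over 45% in size; -100% = wells without RanGTP and RCC1; the record marks most hits as doubtful in a second field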
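Quantitative HTS using a FRET biosensor: 0.1 uM Rango, 0.25 uM importin beta, 0.6 uM Ran, 2 mM GTP, 0.2 uM RCC1 final, PBS with DTT, Tween-20 and BSA. Post-read taken 45 min after Ran addition.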
GLA inh pH 4.5: blocks human alpha-galactosidase A at pH 4.5 | purified enzyme, 4-MU-alpha-Gal fluorescence, pH 4.5 | activity change, negative = inhibition, % at 105 µM | 230,000 tested, under 10 active; inconclusive = small, poorly fitted or top-dose-only inhibition, or a rising curve; inactive = flat fitted curve, though single readings scatter; no compound was filed as active;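 note: 0% = full activity with enzyme and -100% = basal without enzyme; dose as in the result columns while the protocol names 77 µM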
miR-21 FLuc: raises the signal of a miR-21 reporter; Potency, µM (top dose mostly 38.3 µM), inactives show at the top dose reporter change, positive = more light; AID 2288; HeLa miR-21 FLuc reporter, luciferase, 48 h; 340,000 tested, under 10 active; active = well fitted rising curve with a large enough effect; inconclusive = small, poorly fitted or top-dose-only effect; inactive = no such curve, though single readings can be large or run the other way;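 note: % of control where 0% means no effect; miR-21 action dims this reporter so a rising signal means less miR-21 action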
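Using DMEM plus 10% FBS, HeLa miR-21-FLuc cells are incubated with test compounds (final up to about 40uM) for 48 hours; firefly luciferase signal is then imaged following reagent-mediated lysis.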
* marks the source's active call; other numbers are inactive results; u = inconclusive; x = not tested or not shown; & = joins results of further samples. An excerpt, so the mix of outcomes need not match the whole.

SMILES	Rango complex inh	Rango release inh	GLA inh pH 4.5	miR-21 FLuc
c1ccc(CN2CCN(Cc3cn4cccnc4n3)CC2)cc1	0.3%	0.4%	3.4	-0.4%
C[C@@]12CCC=C[C@H]1[C@H](c1ccc(F)c(/C=C/c3ccccc3)c1)N(Cc1ccccc1)C2=O	-0.6%	u	-0.4	-1.5%
Cc1cccc(/C=C/c2onc(C)c2S(=O)(=O)N2CCC(C(=O)NC(C)C)CC2)c1	0.9%	0.7%	x	-3.2%
CC(NC(=O)COC(=O)c1cc([N+](=O)[O-])ccc1N1CCOCC1)c1ccc(F)cc1 (configuration not stated)	-2.4%	0.3%	x	x
COc1ccc(C(C)NC(=O)c2ccccc2Br)cc1OC (configuration not stated)	-1.5%	-13.2%	-8.8	-1.9%
O=C(CN1C(=O)NC2(CCCC2)C1=O)Nc1ccc(Cl)c(C(F)(F)F)c1	-1.8%	-5.7%	x	-0.2%
CSc1ccc(Cl)c(C(=O)OCC(=O)N2CCOCC2)c1	-1.8%	-0.7%	6.8	-4.2%
COc1ccc2c(C)c(CC(=O)N3CCN(C(=O)C4COc5ccccc5O4)CC3)c(=O)oc2c1 (configuration not stated)	2.0%	-9.7%	x	8.4%
CC(C)C[C@H](NC(=O)c1[nH]cnc1C(=O)N[C@@H](C)C(=O)OC(C)(C)C)C(=O)OC(C)(C)C	-0.4%	1.3%	-14.8	u
O=C1C=C(O)c2c(O)cccc2C1=O	x	x	1.4	0.4%
CCN(CC)CCCN1C(=O)C(=O)/C(=C(/O)c2cc(C)ccc2C)C1c1cccnc1 (configuration not stated)	-4.9%	10.8%	-3.8	-2.0%
Cc1cccc(-c2noc(-c3ccccc3C(=O)NCC3CCCO3)n2)c1 (configuration not stated)	0.5%	4.1%	4.1	6.2%
Cc1csc(SCC(=O)NCc2cccc(Cl)c2)n1	-3.5%	21.3%	2.8	-11.9%
COc1ccc(/C(N)=N/OC(=O)CC2CCCCC2)cc1OC	1.0%	-8.0%	x	-40.6%
CC(C)C[C@H](NC(=O)c1nc[nH]c1C(=O)NCc1ccccc1)C(=O)OCc1ccccc1	0.4%	3.6%	-3.8	3.1%
Cc1nnc(SCC(=O)N2CCCCCC2)n(N)c1=O	1.5%	4.7%	0.2	2.6%
O=C(Nc1ccc(N2CCCC2)c(Cl)c1)c1ccccc1[N+](=O)[O-]	-0.7%	-7.5%	0.8	-45.4%
O=C(CN1CCCCCC1)NCc1ccccc1	-0.1%	7.9%	2.4	1.8%
Cc1ccc(C2=NN(C(=O)CCC(=O)O)C(c3cn(-c4ccccc4)nc3-c3ccc(C)cc3)C2)cc1 (configuration not stated)	-1.0%	13.9%	-1.6	-19.3%
O=[N+]([O-])c1cnc2ccccc2c1	6.0%	-9.0%	5.1	-4.9%

A second format for six compounds above:
Second line of a record – Rango complex inh, Rango release inh, GLA inh pH 4.5, miR-21 FLuc
Cc1cccc(-c2noc(-c3ccccc3C(=O)NCC3CCCO3)n2)c1 (configuration not stated)
  0.5%, 4.1%, 4.1, 6.2%
Cc1csc(SCC(=O)NCc2cccc(Cl)c2)n1
  -3.5%, 21.3%, 2.8, -11.9%
COc1ccc(/C(N)=N/OC(=O)CC2CCCCC2)cc1OC
  1.0%, -8.0%, x, -40.6%
CC(C)C[C@H](NC(=O)c1nc[nH]c1C(=O)NCc1ccccc1)C(=O)OCc1ccccc1
  0.4%, 3.6%, -3.8, 3.1%
Cc1nnc(SCC(=O)N2CCCCCC2)n(N)c1=O
  1.5%, 4.7%, 0.2, 2.6%
O=C(Nc1ccc(N2CCCC2)c(Cl)c1)c1ccccc1[N+](=O)[O-]
  -0.7%, -7.5%, 0.8, -45.4%

Next part
SMILES	Rango complex inh	Rango release inh	GLA inh pH 4.5	miR-21 FLuc
Cc1[nH]c2ccccc2c1/C=N/Nc1ccc([N+](=O)[O-])cc1	14.3%	8.3%	1.7	13.9%
Cn1c(C(=O)N[C@@H](C(=O)O)c2ccccc2)cc2cc(F)ccc21	3.7%	35.6%	x	-5.0%
CCNc1nc(Oc2ccc(C(=O)OCC)cc2)nc(N2CCOCC2)n1	x	x	-2.4	-0.8%
COc1ccccc1NC(=O)N1CCC(c2nc3ccccc3o2)CC1	u	-16.3%	-3.9	-1.1%
CCOC(=O)Nc1cc2c(c(N)n1)N=C(c1ccccc1)CN2	u	u	x	x
COc1ccc(-n2nnnc2SCC(=O)Nc2cccc(NC(C)=O)c2)cc1OC	4.4%	2.7%	5.1	-8.6%
Nn1c(SCc2ccccc2)nnc1-c1ccccn1	2.6%	-17.3%	5.2	-39.1%
COc1ccc(/C=C/C(=O)NCC2COc3ccccc3O2)cc1OC (configuration not stated)	1.0%	5.9%	2.4	-1.0%
COc1ccc(CN2CCNC(=O)C2CC(=O)NCc2ccc(C)s2)c(OC)c1 (configuration not stated)	-2.1%	1.0%	-4.9	-2.5%
CCCCCc1ccc(CC(=O)Nn2c(C)nc3ccccc3c2=O)cc1	-3.3%	1.2%	1.3	19.1%
Cc1c(C(=O)OC(C)C(=O)N(C)Cc2ccccc2)oc2ccccc12 (configuration not stated)	12.7%	26.9%	x	x
CCC(=O)NC(c1cccc([N+](=O)[O-])c1)c1c(O)ccc2ccccc12 (configuration not stated)	-1.8%	-7.6%	-0.3	2.2%
O=C(c1ccc([N+](=O)[O-])cc1)N1CCN(c2ncccn2)CC1	6.9%	1.0%	x	x
Cc1ccc(C(C)C)c(Oc2cnccn2)c1	-0.9%	10.4%	x	0.5%
CN=C(Nc1ccc(Cl)cc1)c1cccc(C(F)(F)F)c1	1.1%	16.1%	-13.3	-4.4%
CCOc1cccc(CNCc2ccncc2)c1	0.6%	7.9%	x	2.3%
COc1nc(-c2cnccn2)sc1C	1.4%	0.6%	-10.4	-0.3%
CCCCC(=O)OCC(=O)Nc1ccc(OC(F)F)cc1	-1.4%	-14.5%	-1.1	0.2%
CCC1CCCCN1C(=O)COc1ccc(S(=O)(=O)N2CCOCC2)cc1Cl (configuration not stated)	-0.1%	0.8%	x	x
Cc1sc2nc(SCC(=O)c3cccs3)n(Cc3ccco3)c(=O)c2c1C	-0.9%	-3.0%	-1.8	-3.4%
CCn1cc(C(=O)N2CCN(c3ccc(C(C)=O)cc3)CC2)c2cc(OC)c(OC)cc2c1=O	1.7%	2.8%	-2.3	-9.9%&-7.2%
CC(O)Cn1cnc2c1c(=O)n(C)c(=O)n2C (configuration not stated)	1.5%	0.5%	4.4	1.8%
COc1ccc(C(C)(C)C)cc1S(=O)(=O)N1CCN(C)CC1	-4.8%	1.9%	-2.5	-2.9%
N#CSC(c1ccccc1)c1nc2ccccc2[nH]c1=O (configuration not stated)	-2.1%	-0.1%	x	-0.3%
COc1ccc(-c2nnnn2-c2ccc(F)cc2F)cc1	4.7%	22.5%	-18.6	-5.8%
COc1ccc(Nc2nnc(SC(C)C(=O)NC3CC3)s2)cc1 (configuration not stated)	-0.5%	-9.0%	x	x
Cc1cc(C(=O)N/N=C/c2ccccc2[N+](=O)[O-])c(C)o1	5.7%	-2.2%	-2.1	-39.6%
CSc1nc2c(c(=O)n1-c1ccccc1)SCC2	3.0%	1.7%	-4.3	0.1%
O=C(Nc1ccccc1)c1ccc(CN2CCc3ccccc3C2)cc1	1.5%	34.5%	-20.0	-0.3%
COc1ccccc1N(CC(=O)N1CCCCCC1)S(C)(=O)=O	2.3%	-12.9%	2.3	-1.3%
C=CCN(C(=O)c1csnn1)C(C(=O)NC1CCCCC1)c1ccccc1F (configuration not stated)	-2.1%	0.2%	x	9.5%
O=C(CCc1ccc(CCC(=O)c2cccs2)s1)c1cccs1	-2.1%	-12.4%	-6.5	-37.9%
O=S(=O)(c1ccccc1)N(CC(O)COc1ccccc1)c1ccccc1 (configuration not stated)	0.0%	-6.6%	-2.1	12.5%
C[C@@H](NC(=O)c1nc[nH]c1C(=O)N[C@@H](Cc1ccccc1)C(=O)OC(C)(C)C)c1ccccc1	-5.0%	0.8%	u	13.9%
CCc1ccccc1NC(=O)c1ccc(-c2csc(C)n2)cc1	-0.7%	14.4%	x	-46.5%
CN1N=C(C(C)(C)C)CC1=O	-1.1%	0.3%	-8.9	0.0%
CCOC(=O)/C(C#N)=C/c1cc2ccc(C)cc2nc1Cl	6.4%	-5.7%	-3.1	1.2%
Cc1ccc(S(=O)(=O)N2CCOCC2)cc1NC(=O)COC(=O)c1ccccc1OCc1c(C)noc1C	-3.7%	5.3%	4.3	6.2%
CC1(C2CC2)NC(=O)N(CC(=O)N2CCN(c3ccc(F)cc3)CC2)C1=O (configuration not stated)	-2.2%	-11.9%	x	x
O=C1N[C@@H](Cc2ccccc2)C(=O)N2[C@@H]3N(S(=O)(=O)c4ccccc4)c4ccccc4[C@]3(Br)C[C@@H]12	-2.6%	2.7%	x	x
COc1cc2c(cc1OC)C1Cc3ccc(OC)c(OC)c3C[N+]1([O-])CC2 (configuration not stated)	-1.3%	-21.4%	1.5	0.8%
O=C(/C=C/c1ccc(F)cc1)NC(=S)N1CCOCC1	-0.3%	-10.0%	5.5	-0.7%
Cc1cc(O)c(NC(=O)c2ccco2)cc1C	0.2%	13.0%	-3.2	-44.0%
Cc1cc(O)c(CN(C)C)c2c1C(=O)/C(=C/c1ccco1)O2	u	25.9µM*	x	5.5%
CC1Oc2ccccc2C=C1/C=N/NC(=O)c1ccncc1 (configuration not stated)	-0.3%	-0.8%	-7.1	-1.1%
CCN1CCCC1CNS(=O)(=O)c1cccc(C(F)(F)F)c1 (configuration not stated)	-3.4%	2.0%	-3.8	-3.2%
COc1cc(=O)n(C)c2cc(N(C)C)ccc12	4.4%	8.1%	17.5	-9.7%
CC1CCCC(C)N1C(=C(Cl)Cl)C(=C1SCCS1)[N+](=O)[O-] (configuration not stated)	7.9%	12.9%	-11.0	6.8%
CCC(O)(C(=O)Nc1ccccc1C(F)(F)F)c1ccccc1OC (configuration not stated)	7.3%	8.0%	x	x
Cc1cccc(NC(=O)CCc2nnc3ccc(N4CCC(C)CC4)nn23)n1	-1.8%	-1.6%	x	-0.2%

Going on with the list.
SMILES	Rango complex inh	Rango release inh	GLA inh pH 4.5	miR-21 FLuc
CCOC(=O)c1cnn(CCOC(=O)C2CC2)c1NC(=O)C1CC1	-2.9%	-4.6%	-10.9	-5.5%
O=C(CNS(=O)(=O)c1ccccc1)Nc1cccc([N+](=O)[O-])c1	-4.7%	-16.4%	1.9	-4.1%
O=C(N/N=C/c1ccncc1)c1cc([N+](=O)[O-])cc([N+](=O)[O-])c1	0.0%	-17.5%	-1.9	-7.0%
N#Cc1cc([N+](=O)[O-])c(-n2nnc3ccccc32)c([N+](=O)[O-])c1	5.2%	-3.6%	-0.9	-3.1%
O=C(Nc1nc2ccccc2n1CCN1CCCC1)C1CCCCC1	u	-0.7%	-0.8	1.2%
COc1ccc(C(=O)Nc2c(N)nc(SCC(=O)Nc3ccc(C(C)=O)cc3)[nH]c2=O)cc1	0.2%	-2.2%	x	-1.6%
COc1cc2nc(CN(C)Cc3ccc(C(C)(C)C)cc3)[nH]c(=O)c2cc1OC	0.6%	13.2%	-3.9	-1.6%
O=C(Nc1nnc(-c2ccc(Br)cc2)o1)c1ccco1	-0.7%	13.3%	x	x
COc1cc(/C(C)=N/NC(=O)CSc2nnc(C)s2)ccc1O	0.3%	1.4%	-6.0	-1.2%
Cc1ccc(NC(=O)N(Cc2ccco2)C(C)c2ccco2)cc1C (configuration not stated)	0.4%	0.6%	0.7	-23.2%

Source: PubChem BioAssay (National Center for Advancing Translational Sciences (NCATS))
